# HPGD inh = blocks human HPGD enzyme activity; purified HPGD, NADH fluorescence kinetic, PGE2 substrate; Potency, µM, for inactives: at the top dose activity change, negative = inhibition, usual class: inhibitors; 150,000 compounds, 4.3% hits; AID 894; active = well fitted inhibition curve with a large enough effect (not every such curve was filed as active); inconclusive = small, poorly fitted or top-dose-only effect, or another doubt; inactive = no such curve, though single readings can be large or run the other way;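 also: top concentration of the series not given in the record; plate controls included wells without enzyme; inactives centre near -10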
# Target sequence (P15428 whole entry, looked up): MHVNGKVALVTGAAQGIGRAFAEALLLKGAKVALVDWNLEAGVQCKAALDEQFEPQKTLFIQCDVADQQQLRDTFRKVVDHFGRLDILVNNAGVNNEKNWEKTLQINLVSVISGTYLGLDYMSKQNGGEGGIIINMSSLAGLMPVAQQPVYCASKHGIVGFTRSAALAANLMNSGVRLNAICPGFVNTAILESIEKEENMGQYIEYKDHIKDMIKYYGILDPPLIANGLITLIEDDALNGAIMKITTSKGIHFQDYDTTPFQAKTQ
#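 20 nM HPGD preincubated 15 min at room temperature with compound in 50 mM Tris-HCl pH 8, 0.01% Tween 20. Started with 1 mM NAD+ and 30 uM prostaglandin E2; NADH fluorescence (360/450 nm) read 5 times over 30-s intervals, last minus first.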
# * marks the source's active call; other numbers are inactive results; ? = inconclusive; & = joins results of further samples. % is scaled to controls: 0 for no effect and ±100 for the full control effect; potency is read from the fitted curve at half-maximal effect. An excerpt, so the mix of outcomes need not match the whole.
HPGD inh	structure
?	Cc1nc(/C=C/c2ccccc2)cc(/C=C/c2ccccc2)n1
?	NC(=O)c1nsc(C(=O)N(CC(=O)NCc2ccco2)c2ccccc2F)c1N
-9%	COc1ccc(-n2c(SCC(=O)OC(C)C)nnc2-c2ccccn2)cc1
-5%	O=C(CN1CCCCCC1)OCCN=C1NS(=O)(=O)c2ccccc21
4%	COc1ccc(S(=O)(=O)NCCc2c(C)nn(C)c2Oc2ccccc2)cc1
10µM*	CCOc1ccc(N2CSC3=C(C#N)C(c4ccco4)CC(=O)N3C2)cc1 (stereo unspecified)
1%	COC(=O)c1ccc(N2C(=O)c3ccc(OC)c(OC)c3C2=O)cc1
-1%	Cc1c(CC(Cl)(Cl)Cl)c2c(n1O)CC(C)(C)CC2=O
-28%	CC(C)Oc1ccc(-c2nn(-c3ccccc3)cc2/C=c2\sc3ncnn3c2=O)cc1
?	CCOC(=O)c1[nH]c2ccc(Cl)cc2c1-c1ccccc1
-4%	Cn1c(=O)[nH]c(NC2CCCCC2)c(N=O)c1=O
-8%	CN(C)c1cccc(O)c1
-16%	C=CCOc1c(CNc2nccs2)cccc1OCC
-19%	CCN(CC)CCCN1C(=O)c2oc3ccccc3c(=O)c2C1c1cccs1 (stereo unspecified)
-2%	COc1ccc(S(=O)(=O)N(C)c2ccc(OCC(=O)Nc3cc(C)on3)cc2)cc1
-17%	CC(C)(C)C(=O)Nc1ccccc1C(=O)Nc1ccncc1
-22%	O=C(COC(=O)Cc1cccs1)Nc1ccccc1F
-17%	Cc1ccc2c(c1)c1c3n2CC(=C2C(=O)OC(C)(C)OC2=O)NC3CCC1 (stereo unspecified)
-11%	COc1ccc(-c2nc(-c3ccccc3)c(Nc3c(C)cccc3C)o2)cc1
?	C(=Nc1cnc2ccccc2c1)c1ccc2ccccc2n1
-18%	Cc1ccc(NC(=O)/C=C/c2ccc([N+](=O)[O-])s2)c(C)c1
-20%	O=C(Cn1c(=O)oc2cc(S(=O)(=O)N3CCCC3)ccc21)Nc1cccc(C(F)(F)F)c1
-1%	CCC(CC)NC(=O)c1cccc(NC(=O)C(C)C)c1
-9%	CCOC(=O)c1c(-c2cccc([N+](=O)[O-])c2)csc1NC(=O)C1CCCCC1
0%	Cn1c(=O)c2c(nc(N3CCN(c4ccccc4)CC3)n2CCCc2ccccc2)n(C)c1=O
-18%	COc1ccccc1-c1nc2ccccc2nc1-c1ccccc1
-20%	O=C(Oc1cccc(-c2cnc3ccccc3n2)c1)c1ccco1
-30%	O=S(=O)(Nc1ccc2nc(-c3ccc(Br)o3)[nH]c2c1)c1ccccc1
-4%	O=S(=O)(c1cccc(C(F)(F)F)c1)N(CCCN1CCOCC1)Cc1cccs1
-26%	COc1cc(/C=N/NC(=S)Nc2cccc(S(=O)(=O)N(C)C)c2)cc(OC)c1O
-26%	COC(=O)c1sccc1NC(=O)C1CC=CCC1C(=O)O (stereo unspecified)
-17%	CCCn1c(=N)n(CC(=O)OCC)c2ccccc21
-4%	Nc1nonc1C(=O)OCC(=O)N1CCOCC1
?	CC[n+]1c(/C=C/N(C)c2ccccc2)oc2ccc(Cl)cc21
-19%	CCOc1ccc(C(=O)N/N=C/c2cccc3cccnc23)cc1
0%	c1ccc(CN2CCC3(CCc4ccccc43)CC2)cc1
-27%	Cc1ccc(S(=O)(=O)NC2CCCCC2)c2nsnc12
-9%	O=C(Nc1ccc(F)cc1)c1ccc(-n2ccnc2)nc1
-1%	CC(=O)N(OCc1ccccc1)[C@@H]1c2cc(C#N)ccc2OC(C)(C)[C@H]1O
-8%	O=C(CC1NCCNC1=O)Nc1ccc2c(c1)OCO2 (stereo unspecified)
-9%	Cc1cc(C)n(CC(=O)N/N=C/c2cccc([N+](=O)[O-])c2)n1
?	O=C1OC(Cc2ccccn2)C(O)=C1C1=NCCCCN1 (stereo unspecified)
-9%	Cc1ccc(Cn2nnc3c(=O)n(CC(=O)NCc4ccc5c(c4)OCO5)cnc32)cc1
-4%	CC1CCN(C(=O)c2ccc(S(=O)(=O)N(C)C)cc2)C(C)C1 (stereo unspecified)
25µM*	S=C(Nc1cccc(Cl)c1Cl)Nn1cnnc1
-1%	C/C(=N\NS(=O)(=O)c1ccc(Cl)c([N+](=O)[O-])c1)c1cc2ccccc2o1
?	Cc1cc(C[n+]2ccccc2)c2nsnc2c1
-13%	CC(C)N1CC(O)=C(c2nc3ccccc3[nH]2)C1=N
-6%	CCOCCOC(=O)COC(=O)c1ccccc1NC(=O)c1ccccc1
-4%	Cc1sc2nc(C(C)C)nc(SCC(=O)N3CCN(C(=O)c4ccco4)CC3)c2c1C
-3%	O=C(COc1ccccc1Br)N1CCN(c2ccccc2)CC1
-9%	N#C/C(=C(/O)CN1CCN(c2ccccc2F)CC1)c1nc(-c2ccc(Cl)cc2)cs1
-2%	CC1CCC(C(C)C)C(OC(=O)CSc2nccc(=O)[nH]2)C1 (stereo unspecified)
-4%	COc1ccc(C(=O)O/N=C(\N)c2ccncc2)cc1OC
-11%	Cc1cc(C)c(S(=O)(=O)c2ccccc2C)c(Oc2ccccc2)n1
-4%	CC(=O)N(C)c1ccc(OCC(O)CN(Cc2ccco2)S(=O)(=O)c2ccc(C)cc2)cc1 (stereo unspecified)
-6%	CC(=O)c1c(C)[nH]c(C(=O)OCC(=O)Nc2ccc(C)cc2[N+](=O)[O-])c1C
-2%	COc1ccc(CCNC(=O)CN2CCN(c3ccccc3Cl)CC2)cc1
-4%	CCN1CCN(C(=O)c2ccccc2N(C)S(=O)(=O)c2ccc(C)cc2)CC1
-1%	COc1cc2c(cc1OC)CN(S(C)(=O)=O)CC2

# The listing continues.
HPGD inh	structure
-10%	CCC(C)Sc1nnc(-c2c[nH]c3ccccc23)n1CCOC (stereo unspecified)
-7%	O=C(CN1C2=NCCCN2c2ccccc21)c1ccc2c(c1)OCO2
-5%	COc1ccc(CCN(C)c2ccc(S(=O)(=O)N3CCCC3)cc2[N+](=O)[O-])cc1OC
?	CCn1c(=O)cc(SCC(=O)N2CCOCC2)c2ccccc21
-13%	Cc1cc(C)cc(NC(=O)CC23CC4CC(C2)CC(n2nnc(C)n2)(C4)C3)c1
-12%	CCCNC(=O)COC(=O)c1ccccc1OCC(=O)Nc1ccc(Br)cc1
5%	COc1cccc(CNC(=O)C2CCN(S(=O)(=O)c3cnc[nH]3)CC2)c1
14µM*	CSc1ncccc1C(=O)NCc1ccc(C)cc1
?	CCc1cc(=O)oc2cc(OCC(=O)O)c(Cl)cc12
-13%	O=C(CSc1nnc(-c2cccs2)n1-c1ccccc1)N1CCN(C(=O)c2ccco2)CC1
-7%	c1ccc(CN2CCC3(CC2)Nc2ccccc2CO3)cc1
?	COc1ccc(N2CCN(C(=O)CSc3nnc(-c4ccc5[nH]c(C)c(C)c5c4)o3)CC2)cc1
-18%	CC1=CC(C)(C)N=C(Nc2ccc(C)cc2)S1
28µM*	Cn1c2c(c(=O)c3ccccc31)CCC(C)(C)O2
-15%	S=C(Nc1ccc(Cl)cc1Cl)N1CCOCC1
-6%	COc1cccc(C2=NOC(C(=O)Nc3ccccc3SC)C2)c1 (stereo unspecified)
-5%	COc1ccc(CCNC(=O)CSc2ccc(-c3ccccc3)nn2)cc1
-12%	COC(=O)c1ccc(CNC(=O)CNc2cc(C(F)(F)F)ccc2N2CCOCC2)cc1
-7%	CC(C)Oc1ccc(C2CNC(=O)C2)cc1 (stereo unspecified)
-3%	O=C(NCc1cccnc1)[C@@H]1[C@@H](C(=O)O)[C@H]2CC[C@@H]1O2
1%	CCn1nccc1C(=O)Nc1nc2ccccc2n1CCN1CCCCC1
-8%	CC(=O)c1cccc(NC(=O)C2CCN(S(C)(=O)=O)CC2)c1
-5%	CN(C)CCc1c[nH]c2ccc(CC3COC(=O)N3)cc12 (stereo unspecified)
-6%	O=C(Nc1cccc(Cl)c1)N1CCN(c2ncccn2)CC1
-8%	CCCCc1ccc(-c2csc(/C(C#N)=C/c3ccc(C)o3)n2)cc1
-9%	Cc1ccc(C(=O)N(Cc2ccccc2)C(C)(C)C)cc1C
?	COc1cccc(-c2nc(NCc3ccco3)c3ccccc3n2)c1O
?	COc1ccc2[nH]c3c(=O)n(Cc4ccco4)cnc3c2c1
-30%	COc1cccc(C(=O)CSc2nnc(-c3cc(OC)c(OC)c(OC)c3)o2)c1
-4%	O=S(=O)(c1ccccc1)N1CCn2c(nc3ccccc32)C1

# Given with each value named: part of the list above
CCCNC(=O)COC(=O)c1ccccc1OCC(=O)Nc1ccc(Br)cc1
- HPGD inh = -12%

COc1cccc(CNC(=O)C2CCN(S(=O)(=O)c3cnc[nH]3)CC2)c1
- HPGD inh = 5%

CSc1ncccc1C(=O)NCc1ccc(C)cc1
- HPGD inh = 14µM*

CCc1cc(=O)oc2cc(OCC(=O)O)c(Cl)cc12
- HPGD inh = ?

# (cont.)
HPGD inh	structure
?	COc1ccc(C2C3=C(CCCC3=O)Nc3c(-c4ccccc4)c(C)nn32)cc1 (stereo unspecified)
-10%	Nc1nc(-c2ccccc2)cc(C(F)(F)F)n1
-10%&-21%	COC(=O)[C@@H](NC(=O)O[C@@H]1C(=O)c2ccc(OC)cc2O[C@H]1c1cccc(C(F)(F)F)c1)C(C)C
16µM*	Cc1nnc2n(Cc3ccccc3)c(=O)c3c4c(sc3n12)COC(C)(C)C4
-8%	O=C(CSc1nnc2scc(-c3ccccc3)n12)Nc1ccc2c(c1)OCCO2
?	COc1cccc(CN2C(=O)c3cccc(N)c3C2=O)c1
-2%	Cc1ccc2[nH]c(=O)c(CN(CCCN(C)C)C(=O)Nc3ccc(Cl)cc3)cc2c1
-12%	CCCCC(=O)Nc1ccc(Br)cn1
-23%	CCOCCCNC(=S)NCCNc1nc2ccc(C)cc2cc1C#N
-8%	CCOC(=O)c1ccc(NC(=O)CSc2nnc(COc3ccccc3)n2C)cc1
1%	COC(=O)N1CCC2(CCCN(C(=O)Nc3ccc(OC)cc3)C2)CC1
-12%	CCOC(=O)CSc1nc2cc3c(cc2cc1C#N)OCO3
-21%	Clc1ccccc1OCCn1cnc2ccccc21
-2%	Cc1ccc(N2C(=O)CS/C2=C(\C(Cl)=C(Cl)Cl)[N+](=O)[O-])cc1
-9%	CCOC(=O)C1C(=O)Nc2nc3ccccc3n2C1C(C)C (stereo unspecified)
-14%	O=C1CN(C(=O)c2cc3ccccc3oc2=O)C(c2ccc(F)cc2)c2cc(Br)ccc2N1 (stereo unspecified)
-21%	O=C(COC(=O)Cn1[nH]c(=O)c2ccccc2c1=O)Nc1ccc2c(c1)OCO2
-12%	Cc1cccc(NS(=O)(=O)c2ccc(Br)s2)n1
-4%	Cc1ccc(Cc2cnc(NC(=O)/C(C#N)=C/c3ccc(-c4ccc([N+](=O)[O-])cc4)o3)s2)cc1
-19%	O=c1c2c3c(sc2ncn1-n1cccc1)CCCCC3
-10%	CCCOCC(C)OCC(C)O (stereo unspecified)
-18%	CC(C)C(NC(=S)NCc1ccccc1)C(=O)O (stereo unspecified)
-22%	O=C(N/N=C/C1CC=CCC1)c1ccccc1O (stereo unspecified)
-9%	CN1CCCC(OC(=O)COc2ccc(Br)cc2)C1 (stereo unspecified)
-6%	CCOC(=O)CSc1nnc(CNC(=O)c2cc(OCC)c(OCC)c(OCC)c2)n1C
-3%	CCOC(=O)C1C(=O)NC(N2CCN(Cc3ccccc3)CC2)=NC1c1ccco1 (stereo unspecified)
-11%	O=C(CCC(=O)OCCCC(F)(F)C(F)(F)F)NC1CCCCC1
-30%	O=C(Nc1nc2ccc(S(=O)(=O)N3CCCC3)cc2s1)c1cccs1
?	CCN(c1ccccc1)S(=O)(=O)c1ccc2[nH]cc(C(=O)N3CCOCC3)c(=O)c2c1
14µM*	CSc1ccc(Cl)c(C(=O)OCC(=O)NCC(C)C)c1

# Part of the list above in a different format.
Structure,HPGD inh
O=C(Nc1nc2ccc(S(=O)(=O)N3CCCC3)cc2s1)c1cccs1,-30%
CCN(c1ccccc1)S(=O)(=O)c1ccc2[nH]cc(C(=O)N3CCOCC3)c(=O)c2c1,?
CSc1ccc(Cl)c(C(=O)OCC(=O)NCC(C)C)c1,14µM*

# Back to the main list, repeating the 3 entries before the break.
HPGD inh	structure
-30%	O=C(Nc1nc2ccc(S(=O)(=O)N3CCCC3)cc2s1)c1cccs1
?	CCN(c1ccccc1)S(=O)(=O)c1ccc2[nH]cc(C(=O)N3CCOCC3)c(=O)c2c1
14µM*	CSc1ccc(Cl)c(C(=O)OCC(=O)NCC(C)C)c1
-8%	Cn1c2c(c(=O)n(C)c1=O)C1(C(=O)Nc3ccccc31)C(C#N)=C(N)O2 (stereo unspecified)
1%	O=C(Nn1cnnc1)c1cc(-c2ccccn2)nc2ccccc12
-15%	O=C(CSc1nncn1-c1ccccc1)Nc1cc(Cl)cc(Cl)c1
?	COC(=O)c1ccc2c(c1)c(C#Cc1ccccc1)c(-c1ccccc1)n2C
?	O=C(O/N=C/c1ccc2c(c1)OCO2)c1ccccc1Cl
-18%	O=C(N/N=C/C(Br)=C/c1ccccc1)c1n[nH]c2c1CCC2
-5%	O=C(Cc1n[nH]c(=O)[nH]c1=O)N/N=C/c1ccccc1O
16µM*	Cn1c(=O)cc(SCC(=O)N2CCCC2)c2ccccc21
-5%	COc1cccc(CN2C(=O)N(C(C)C)C(N(O)C(=O)NC(C)C)C2(C)C)c1OC (stereo unspecified)
28µM*	Cc1ccc(S(=O)(=O)N(C(=O)c2ccncc2)c2ccc(OC(=O)c3ccncc3)c3ccccc23)c(C)c1
20µM*	CCCc1cc(=O)[nH]c(SCc2cccnc2)n1
-14%	CCn1c(SCC(=O)Nc2oc(-c3ccccc3)c(-c3ccccc3)c2C#N)nnc1-c1ccncc1
